From PubChem BioAssay
VDR inh = vitamin D3 receptor (human) inhibition | P11473 | VDR-SRC2-3 peptide fluorescence polarization, 2 h | Potency, µM, for the others: max response, negative = inhibition, hits mostly inhibitors | 400,000 compounds, 0.93% hits; active = well fitted inhibition curve with a large enough effect; inconclusive = small, poorly fitted or top-dose-only effect, or another doubt; inactive = no such curve, though single readings can be large or run the other way; also: series mostly up to about 120 µM
Target sequence (P11473 whole entry, looked up): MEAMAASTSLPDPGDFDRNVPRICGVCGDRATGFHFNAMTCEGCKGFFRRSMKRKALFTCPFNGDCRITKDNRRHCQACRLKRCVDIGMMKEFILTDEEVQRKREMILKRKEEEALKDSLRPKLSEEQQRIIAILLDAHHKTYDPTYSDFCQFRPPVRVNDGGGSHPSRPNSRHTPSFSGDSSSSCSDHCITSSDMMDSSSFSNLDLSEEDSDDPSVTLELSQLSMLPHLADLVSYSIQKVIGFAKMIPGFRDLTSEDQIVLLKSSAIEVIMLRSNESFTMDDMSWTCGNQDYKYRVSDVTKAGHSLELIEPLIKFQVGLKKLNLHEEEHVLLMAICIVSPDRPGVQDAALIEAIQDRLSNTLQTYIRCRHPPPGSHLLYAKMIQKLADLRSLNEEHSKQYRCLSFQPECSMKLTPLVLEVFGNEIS
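Inhibition of the VDR/SRC2-3 peptide interaction is quantified by fluorescence polarization. Compounds (23 nl, pintool) incubate with the reagents for 2 hours at ambient room temperature.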
Starred values were filed as active, the others as inactive; ? = inconclusive. % is scaled to controls: 0 for no effect and ±100 for the full control effect; potency is read from the fitted curve at half-maximal effect. Only part of the results is shown; rates above refer to the full screens.

No.	SMILES	VDR inh
1	Cc1nc(SC(C)C(=O)Nc2cccc(C(F)(F)F)c2)c2c(C)c(C(=O)O)sc2n1 (stereo unspecified)	-4.2%
2	CCc1ccc(NC(=O)CSc2nc3cc(C(=O)OC)ccc3c(=O)n2CC2CCCO2)cc1 (stereo unspecified)	4.6%
3	O=C1/C(=C/c2ccncc2)CCC/C1=C\c1ccncc1	7.08µM*
4	COc1cccc(-c2csc(N3CCN(C(=S)Nc4cccc(Cl)c4)CC3)n2)c1	-3.4%
5	Cc1oc(-c2ccccc2Cl)nc1CSc1nncn2c1cc1occc12	-7.4%
6	CC(=O)Nc1ccc(OCC(O)Cn2ccnc2C)cc1 (stereo unspecified)	-5.9%
7	COCCOC(=O)C1=C(C)NC(=O)NC1c1c(OC)ncnc1OC (stereo unspecified)	2.7%
8	COC(=O)c1sc(-c2ccccc2)cc1NC(=O)C1CC1	17.0%
9	Cc1ccc(S(=O)(=O)Nc2c(C)cc([N+](=O)[O-])cc2C)cc1	-9.4%
10	CN1CC(O)C2=CC(=O)C(=O)C=C21 (stereo unspecified)	11.2µM*
11	CCOC(=O)[C@H]1[C@H]2COc3ccc(Br)cc3[C@H]2N2C(=O)CN(Cc3ccc(C)cc3)C(=O)[C@@]12C	-7.7%
12	CCOc1ccc(NC(=O)CSc2nnc(-c3ccccn3)n2N)cc1	1.4%
13	COc1ccc(CC(=O)NCc2nnc(SCC(=O)c3ccc(OC)cc3)n2C)cc1	-13.7%
14	COc1ccc(OC(=O)COc2cccc(C)c2)cc1	-6.0%
15	CCn1c(SCc2cccnc2)nnc1-c1c[nH]c2ccccc12	-2.7%
16	CN(C(=O)CN1CCC(NC(=O)c2ccccc2Br)CC1)C1CCCCC1	0.1%
17	O=C(O)c1ccccc1Oc1ccc(Oc2ccccc2)cc1	-26.8%
18	O=C(NC1CCCC1)c1ccc(CSc2nc3cccnc3n2Cc2ccc(F)cc2)cc1	-2.9%
19	O=C(CN1C(=O)c2ccc([N+](=O)[O-])cc2C1=O)NCc1ccc(C(=O)O)cc1	-11.1%
20	COc1ccc(N2C(=O)NC(NS(=O)(=O)c3ccccc3)(C(F)(F)F)C2=O)cc1 (stereo unspecified)	-10.9%
21	O=C(c1ccc(Br)cc1)C1CCc2occc2C1=O (stereo unspecified)	15.2%
22	CCOC(=O)N1CCC(N2CCN(S(=O)(=O)CC)CC2)CC1	5.9%
23	COc1ccc(C(=O)Nc2ccc3c(c2)N(C)C(=O)c2ccccc2S3)cc1OC	12.9%
24	O=C(Nc1ccccc1C(=O)N1CCCCC1)C1CCCCC1	-4.7%
25	Cn1nc(-c2ccccc2)c(/C=N/O)c1Cl	-6.8%
26	O=C(NCC(c1cccs1)N1CCOCC1)c1ccccc1NS(=O)(=O)c1ccc(Br)cc1 (stereo unspecified)	1.0%
27	CCc1cc(=O)oc2cc(C)cc(OCC(=O)N3CCC[C@@H]3C(=O)O)c12	-9.6%
28	S=c1[nH]nc(-c2ccccc2)n1/N=C/c1ccc(Cl)cc1	2.8%
29	C#Cc1cccc(C(=O)N2CCCC(CCC(=O)NCc3ccccc3F)C2)c1 (stereo unspecified)	-7.2%
30	Cc1cc(Cl)nc(-c2ccccc2)n1	13.4%
31	O=C(NC1=NCCS1)c1ccc(Cl)c(S(=O)(=O)N2CCCCC2)c1	-11.9%
32	COc1ccccc1CNC(=O)c1cc(C2CC2)nc2c1cnn2C(C)C	-10.0%
33	O=C(Cc1ccc(NS(=O)(=O)c2ccc(F)cc2)cc1)NCc1ccccc1	8.6%
34	O=S(=O)(Nc1ncn[nH]1)c1ccc(Cl)cc1	-3.7%
35	COc1ccc2c(c1)C(c1cccs1)=NNC(c1cccnc1)=N2	5.8%
36	CCOC(=O)c1ccc(S(=O)(=O)N2CCN(C(=O)c3cc4ccccc4o3)CC2)cc1	-18.5%
37	COc1ccc(Cl)cc1NC(=O)CN(C)C(=O)CN1C(=O)NC2(CCCC2)C1=O	-1.6%
38	CCCC(=O)Nc1sc(Cc2ccccc2)c(C)c1C(N)=O	?
39	O=C(NC(=S)Nc1nc2c(s1)CCCC2)c1ccccc1	-6.5%
40	CCC(SC1=Nc2ccccc2C2=NC(CC(C)C)C(=O)N12)C(=O)Nc1ccc2c(c1)OCO2 (stereo unspecified)	6.7%
41	CCOP(=O)(OCC)C(Nc1ccc(OC)cc1)c1ccco1 (stereo unspecified)	4.3%
42	CC(C)C(C)N(Cc1ccc(C(=O)O)cc1)C(=O)c1ccc2ccccc2n1 (stereo unspecified)	-5.5%
43	CC1=C(C(=O)Nc2ccc(C)cn2)C(c2cnn(C)c2)C2=C(CCCC2=O)N1 (stereo unspecified)	-24.3%
44	CCOc1ccc(Nc2oc(-c3ccc(COc4ccc(OC)cc4)o3)nc2C#N)cc1	-0.4%
45	O=c1[nH]c2ccc(S(=O)(=O)N3CCCCC3)cc2o1	-4.9%
46	Cc1ccc(S(=O)(=O)/C=C/c2ccccc2)cc1	-4.8%
47	O=C(CN(C(=O)CCC(=O)Nc1nccs1)c1ccc(F)cc1)NCc1ccc(F)cc1	-12.2%
48	CCn1c(SCC(=O)Nc2cc(C)on2)nnc1-c1ccc(S(=O)(=O)N2CCCC2)cc1	-4.9%
49	COc1ccc(N(CC(=O)NCc2ccc(F)cc2)C(=O)CCC(=O)Nc2nccs2)cc1	-9.8%
50	COc1ccc(NC(=O)Nc2cccc3ccccc23)cc1OC	1.8%

Next part
No.	SMILES	VDR inh
51	CC(=O)Nc1ccc(S(=O)(=O)NCCCCNS(=O)(=O)c2ccc(NC(C)=O)cc2)cc1	0.9%
52	COCCN(CC(=O)Nc1cccc(C)c1C)C(=O)CN1C(=O)NC2(CCCCC2)C1=O	-9.3%
53	COc1ccc(NC(=O)C2CC(=O)OC23CCOC(C)(C)C3)cc1 (stereo unspecified)	-3.9%
54	Cc1ccc(S(=O)(=O)N[C@H](C(=O)N2CCC(C(=O)NCC(=O)O)CC2)C(C)C)cc1	-18.0%
55	O=C(c1ccco1)N1CCN(Cc2cccnc2)CC1	1.0%
56	CCOCCCNC(=S)N1CCC(NC(=O)C2CCCCC2)CC1	14.2%
57	CCOC(=O)N1CCN(C(=O)COc2cc(=O)n(CC)c3ccccc23)CC1	0.1%
58	Cc1nn(C)c2c1c(-c1ccccc1)cc(=O)n2Cc1ccc(Cl)cc1	-2.3%
59	O=S(=O)(c1ccccc1)N1CCN(C2CCCCCCC2)CC1	-9.4%
60	CC(C)(C)OC(=O)NCc1ccc(NC(=O)c2nc[nH]c2C(=O)N[C@@H](Cc2ccccc2)C(=O)OC(C)(C)C)cc1	-7.5%

Three compounds out of the list above, sorted by the value under VDR inh, rising:
entry	canonical_smiles	VDR inh
14	COc1ccc(OC(=O)COc2cccc(C)c2)cc1	-6.0%
16	CN(C(=O)CN1CCC(NC(=O)c2ccccc2Br)CC1)C1CCCCC1	0.1%
23	COc1ccc(C(=O)Nc2ccc3c(c2)N(C)C(=O)c2ccccc2S3)cc1OC	12.9%

(listing goes on)
No.	SMILES	VDR inh
61	CN1CCN(c2ncc3nc(-c4ccc(Cl)cc4)c(=O)n(C4CC4)c3n2)CC1	-0.5%
62	CSc1nc2sc3c(c2c(=O)n1-c1ccccc1C)CCCC3	4.5%
63	Cc1ccnc(N2C(=O)c3cccc4c([N+](=O)[O-])ccc(c34)C2=O)c1	6.7%
64	O=C1c2ccccc2C(=O)N1CCN1CCOCC1	7.8%
65	O=C(Nc1ccccc1NC(=O)c1ccccc1Cl)c1ccccc1Cl	-14.3%
66	COc1cc(NS(=O)(=O)c2cc3[nH]c(=O)[nH]c3cc2C)cc(OC)c1OC	-3.8%
67	COc1ccccc1C1NC(=O)NC(C)=C1C(C)=O (stereo unspecified)	-7.1%
68	COC(=O)CSc1nc(NC(C)C)nc(N(C)C)n1	8.9%
69	COc1ccc(CNC(=O)c2ccc3c(c2)N(Cc2ccccc2F)C(=O)c2ccccc2S3=O)cc1 (stereo unspecified)	-10.0%
70	CC(=O)NC1=NN(C(C)=O)C(C)(CCS(=O)(=O)c2ccc(Cl)c(Cl)c2)S1 (stereo unspecified)	-1.9%
71	CC(C)Cn1c(=O)c2ccccc2n2c(CCC(=O)N3CCN(c4ccccc4)CC3)nnc12	-22.3%
72	Cc1ccc(NC(=O)COc2cccc(C)c2C)cc1S(=O)(=O)N1CCCCCC1	9.7%
73	Cc1ccc(NC(=O)C2CCN(S(=O)(=O)c3ccc(F)cc3)CC2)cc1	1.6%
74	O=C(COC(=O)c1cc(Cl)ccc1Cl)NC1CCCC1	3.4%
75	O=C(NCc1ccc(Cl)s1)C1CCC(=O)N(CCc2ccccn2)C1 (stereo unspecified)	18.3%
76	N#Cc1c(SCC(=O)Nc2cccc(C(F)(F)F)c2)sc2c(O)cc(=O)[nH]c12	?
77	CC(C)Oc1ccc(C(=O)OC(C)C(=O)Nc2nc(-c3cccc([N+](=O)[O-])c3)cs2)cc1 (stereo unspecified)	-9.2%
78	COc1ccc(-c2cc(C#N)nc(NN)n2)cc1	-3.3%
79	COc1cc(C(=O)ONC(=O)c2ccc(OC(F)F)cc2)cc(OC)c1OC	2.5%
80	C[C@H](NC(=O)c1[nH]cnc1C(=O)N[C@H](C)c1ccccc1)c1ccccc1	-4.1%
81	CN(c1ccc(OCC(=O)Nc2cc(Cl)ccc2C(=O)O)cc1)S(=O)(=O)c1ccc(F)cc1	-11.5%
82	N=c1n(CCCOc2ccccc2Cl)c2ccccc2n1CC(N)=O	-4.4%
83	CN1CCN(c2nc3c(c(=O)[nH]c(=O)n3C)n2CCCSc2ncccn2)CC1	8.5%
84	CCOC(=O)C(=O)NC(C)c1ccccc1 (stereo unspecified)	-9.8%
85	O=[N+]([O-])c1ccc(CN2CCN(Cc3c[nH]c4ccccc34)CC2)cc1	6.5%
86	COc1ccc(C2c3[nH]c4ccccc4c3CCN2C(=O)c2ccc(=O)n(C)n2)c(F)c1 (stereo unspecified)	-6.9%
87	O=C(CCCSc1nc2ccccc2[nH]1)Nc1nnc(C2CC2)s1	-25.0%
88	Cc1cc(C(C)(C)C)oc1C(=O)N1CCN(C(=O)c2oc(C(C)(C)C)cc2C)CC1	-9.0%
89	Cc1cc(Nc2ccccc2N2CCOCC2)n2ncnc2n1	3.5%
90	Cc1ccc2c(CC(=O)OC(C)C(=O)NCc3ccc4c(c3)OCO4)coc2c1 (stereo unspecified)	-8.2%

VDR inh, entries above that show a hit.
No.	SMILES	VDR inh
3	O=C1/C(=C/c2ccncc2)CCC/C1=C\c1ccncc1	7.08µM*
10	CN1CC(O)C2=CC(=O)C(=O)C=C21 (stereo unspecified)	11.2µM*

(continued)
No.	SMILES	VDR inh
91	COc1ccc(N2CCN(C(=O)COC(=O)Cc3ccc(F)cc3)CC2)cc1	-0.5%
92	CCOC(=O)N1CCC(NC(=O)c2oc3c(C)c(C)ccc3c2C)CC1	-4.3%
93	CCCCOc1ccc(NC(=O)Cn2nnnc2-c2ccccc2F)cc1	6.8%
94	O=C(NCCN1CCCC1)c1ccc2c(c1)N(Cc1ccccc1)C(=O)c1ccccc1S2(=O)=O	-10.4%
95	Cc1cccc(OCC(=O)N2CCC(c3nc4ccccc4o3)CC2)c1C	0.3%
96	CC(C)C(c1nnnn1Cc1ccccc1)N1CCC(C(N)=O)CC1 (stereo unspecified)	-1.6%
97	Cc1ccc(S(=O)(=O)N2CCC(C(=O)Nc3ccccc3N3CCCC3)CC2)c(C)c1	-26.5%
98	O=C(Cc1ccc(F)cc1)NCCS(=O)(=O)N1CCN(c2ccccc2)CC1	-6.1%
99	CCCCCN(C(=O)CCC(=O)OCC(=O)N(C)Cc1ccccc1C)c1c(N)n(CCCC)c(=O)[nH]c1=O	-19.9%
100	COC(=O)/C=C1\NCCNC1=O	0.3%
101	O=C(O)c1ccc(OS(=O)(=O)c2cccc(C(F)(F)F)c2)cc1	-14.3%
102	CCCCOC(=O)Nc1nnc(Cc2ccc(Cl)cc2)s1	-2.3%
103	CC(OC(=O)c1cccs1)C(=O)NCc1cccs1 (stereo unspecified)	-4.4%
104	CCCCNc1ccc(C(CC(N)=O)NC(=O)c2cc(C)cc(C)c2)cc1[N+](=O)[O-] (stereo unspecified)	15.7%
105	COc1ccccc1CNC(=O)CSc1nc2nc(C)cc(C)n2n1	6.2%
106	CCn1nnnc1SCCSc1nnnn1CC	-0.4%
107	COc1cc(CNC(=O)CSCc2nc3cccnc3n2C2CCCCC2)cc(OC)c1OC	0.5%
108	Cc1nn(Cc2ccccc2)c(C)c1NC(=O)Cn1nc([N+](=O)[O-])c(Cl)c1C	-12.7%
109	CCc1nc2cc(Cl)c(Cl)cc2nc1CC	-8.8%
110	O=C1CSC2(CCN(CCCN3c4ccccc4Sc4ccc(Cl)cc43)CC2)N1	1.2%

Single entries from the entries so far.
Result for `CC(OC(=O)c1cccs1)C(=O)NCc1cccs1` (stereo unspecified) under VDR inh: -4.4%
Result for `CCCCOC(=O)Nc1nnc(Cc2ccc(Cl)cc2)s1` under VDR inh: -2.3%

The listing continues:
No.	SMILES	VDR inh
111	CC[C@@H]1OC(=O)[C@H](C)[C@H](O[C@@H]2C[C@](C)(OC)[C@H](O)[C@H](C)O2)[C@H](C)[C@H](O[C@@H]2O[C@@H](C)C[C@@H](N(C)C)[C@@H]2O)[C@](C)(O)C[C@H](C)[C@@H]2N[C@H](COCCOC)O[C@H]([C@@H]2C)[C@]1(C)O	2.3%
112	Cc1oc2c(C)c(O)ccc2c(=O)c1-c1ccc2ccccc2n1	2.6%
113	O=C(CNC(=O)c1ccccc1)OCC(=O)c1ccc2ccccc2c1	-10.3%
114	CN1C(=O)C(CC(=O)NCCc2ccccc2)N(NC(=O)c2cccc(F)c2)C1=S (stereo unspecified)	3.0%
115	N#CCc1ccc(OC(=O)c2ccncc2)cc1	-14.0%
116	CCC(c1nnc(SCC(=O)Nc2cc(S(C)(=O)=O)ccc2Cl)n1Cc1ccccc1)N(C)C (stereo unspecified)	0.7%
117	Cc1ccc(F)c([C@H]2[C@@H]3C=CCC[C@@]3(C)C(=O)N2Cc2ccccc2)c1	-5.2%
118	N#Cc1c(NC(=O)c2ccccc2)sc2c1CCC2	2.4%
